2A StopGo = lowers the luciferase signal of an FMDV 2A StopGo reporter. Potency, µM (series often up to 57.9 µM), inactives show top-dose signal change, negative = less light. human cells with a luciferase reporter of 2A StopGo recoding; control for the full effect not named in the record. AID 1159524. 410,000 tested, 1.2% active; active = well fitted falling curve with a large enough effect; inconclusive = small, poorly fitted or top-dose-only effect; inactive = no such curve, though single readings can be large or run the other way; tested in HEK293T cells; also: % is scaled to controls: 0 for no effect and ±100 for the full control effect; nearly all actives have a fitted effect of over 45% in size; luciferase light after 4 h
Cruzain noTriton = inhibitors of Trypanosoma cruzi cruzain without detergent; P25779; purified cruzain, Z-FR-AMC fluorescence, no detergent; Potency, µM, inactives show max response, negative = inhibition, most hits filed as inhibitors; 200,000 tested, 2.3% active; AID 1476;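 also: plate controls were enzyme without inhibitor for no effect and buffer without enzyme for full effect; nearly all actives have a fitted effect of over 40% in size; top concentration of the series not given in the record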
Target sequence (P25779 123-467 limits assumed): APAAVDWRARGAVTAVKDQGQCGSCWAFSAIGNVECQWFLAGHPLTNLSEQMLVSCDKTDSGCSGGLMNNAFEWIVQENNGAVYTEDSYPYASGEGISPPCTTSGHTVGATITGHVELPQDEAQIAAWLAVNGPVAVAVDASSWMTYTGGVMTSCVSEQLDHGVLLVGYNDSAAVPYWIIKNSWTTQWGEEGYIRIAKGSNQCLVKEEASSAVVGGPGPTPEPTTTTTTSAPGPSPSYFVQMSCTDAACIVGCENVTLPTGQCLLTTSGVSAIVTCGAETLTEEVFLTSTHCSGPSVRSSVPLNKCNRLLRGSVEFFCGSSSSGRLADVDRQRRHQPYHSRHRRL
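Purified cruzain at 1.5 nM, pre-incubated 15 min with compound at room temperature in 100 mM sodium acetate pH 5.5, 5 mM DTT, 0.00005% Triton X-100. Reaction started with 2 uM Z-FR-AMC; AMC fluorescence increase over 60 s gives rate.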
RE007 growth inh = less growth of the S. pombe RE007 Vpr strain | S. pombe RE007 Vpr strain, BacTiter-Glo ATP luminescence, 24 h; control for the full effect not named in the record | Potency, µM (highest dose often 92.2 µM), for the others: at the highest dose activity change, negative = less growth | 360,000 tested, 0.21% active; active = well fitted falling curve with a large enough effect; inconclusive = small, poorly fitted or top-dose-only effect; inactive = no such curve, though single readings can be large or run the other way;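 also: % is scaled to controls: 0 for no effect and ±100 for the full control effect; nearly all actives have a fitted effect of over 50% in size; the assay follows cell death caused by Vpr and the record does not say whether a fall means rescue or toxicity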
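Fission yeast strain RE007, carrying one chromosomally integrated HIV-1 vpr copy, was seeded at OD 0.01 in PMG+AL medium with 23 nL pinned compound. After 24 h at 30 °C and 99% humidity, viability was read by BacTiter-Glo luminescence.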
LASV entry inh = Lassa virus entry inhibition; Lassa virus pseudotype entry inhibition, cell reporter; control for the full effect not named in the record; Potency, µM (series often up to 37.9 µM), without a hit: at the highest dose activity change, negative = inhibition, usual class: inhibitors; 300,000 tested, 1.2% active; AID 540256; active means well fitted inhibition curve with a large enough effect; inconclusive means small, poorly fitted or top-dose-only effect, or effect the other way; inactive means flat fitted curve, though single readings scatter; tested in HEK293 cells; also: % is scaled to controls: 0 for no effect and ±100 for the full control effect; nearly all actives have a fitted effect of over 50% in size; luciferase read-out
Marburg entry inh = inhibitors of Marburg virus binding or cell entry. Potency, µM (titrated, usually from 37.8 µM), inactives show at the highest dose activity change, negative = inhibition, hits mostly inhibitors. Marburg virus pseudotyped entry inhibition, cell reporter; control for the full effect not named in the record; about a third of the inactives were read at about 46 µM. 300,000 tested, 1.8% active. AID 540276; active = well fitted inhibition curve with a large enough effect; inconclusive = small, poorly fitted or top-dose-only effect, or effect the other way; inactive = flat fitted curve, though single readings scatter; tested in HEK293 cells; about a fifth of its hits are not listed in these tables; also: % is scaled to controls: 0 for no effect and ±100 for the full control effect; luciferase read-out
SARS PLP yeast = inhibitors of SARS-CoV papain-like protease in yeast | S. cerevisiae expressing SARS-CoV PLpro, growth rescue; control for the full effect not named in the record | Potency, µM (top dose mostly 32.9 µM), for the others: top-dose activity, positive = growth rescue | 330,000 tested, 0.19% active | AID 485353; active means well fitted rising curve with a large enough effect; inconclusive means small, poorly fitted or top-dose-only effect; inactive means no such curve, though single readings can be large or run the other way; also: 0% is about no effect; nearly all actives have a fitted effect of over 55% in size; growth read by luminescence after 48 h
NS1 function inh = inhibitors of influenza NS1 protein function | S. cerevisiae slowed by influenza A NS1, growth recovery by OD600 | Potency, µM (doses to about 46.1 µM), for inactives: top-dose activity, positive = more growth | 270,000 tested, 0.4% active; active means well fitted rising curve with a large enough effect; inconclusive means small, poorly fitted or top-dose-only effect; inactive means no such curve, though single readings can be large or run the other way; also: nearly all actives have a fitted effect of over 50% in size
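OD600 was taken as the measure of yeast growth restored by compound in an NS1-expressing S. cerevisiae strain. Cells had been washed out of glucose medium and diluted 1:100 into galactose -URA medium, pH 6.0.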
Cruzain Triton = blocks cruzain activity in presence of Triton detergent | P25779 | purified cruzain, Z-FR-AMC fluorescence, 0.01% Triton | Potency, µM, for the others: max response, negative = inhibition, hits mostly inhibitors | 200,000 tested, 0.43% active | AID 1478;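 also: plate controls were neutral wells for no effect and buffer without enzyme for full effect; nearly all actives have a fitted effect of over 40% in size; top concentration of the series not given in the record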
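Enzyme 1.5 nM, Z-FR-AMC 2 uM, NaOAc 100 mM pH 5.5, DTT 5 mM, Triton X-100 0.01%; 15 min RT compound preincubation; kinetic ex360/em450, 60 s delta.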
An asterisk follows results filed as active; ? = inconclusive; nt = no result given; & = joins results of further samples; [ ] = remark or other dose. Unless noted, calls follow the shape of the dose curve; as a rule, active = well fitted curve in the direction sought with a large enough effect; inconclusive = small, poorly fitted or top-dose-only effect, or another doubt; inactive = no such curve, though single readings can be large; an effect the other way counts as inactive or inconclusive. Potency is read from the fitted curve at half-maximal effect. Random draw from the library; about 4.8% have a hit in one of these screens.

| SMILES | 2A StopGo | Cruzain noTriton | RE007 growth inh | LASV entry inh | Marburg entry inh | SARS PLP yeast | NS1 function inh | Cruzain Triton |
| --- | --- | --- | --- | --- | --- | --- | --- | --- |
| CCCCN1C(=O)N(C)C2NC(=O)NC21 (stereo not given) | -9% | 0% | 32% | ? | -6%[46.1 µM] | 8% | 3% | 2.5% |
| Cc1nn(CCCC(=O)Nc2cccnc2)c(C)c1[N+](=O)[O-] | 3% | nt | -5% | ? | ? | -3% | nt | nt |
| Cc1cc(C)n2cc(CSc3nnnn3-c3ccc(Cl)cc3)nc2n1 | -28% | -8% | 0% | 3% | -3% | 0% | -5% | 1.1% |
| CCC(C(=O)NC(C)(C)C)N(Cc1ccco1)C(=O)Cn1nnc(-c2ccc(F)cc2)n1 (stereo not given) | -20% | nt | 6% | 11% | -21%[46.1 µM] | -1% | -1% | nt |
| COc1cccc(NC(=O)COC(=O)c2ccccc2C(=O)N(C)c2ccccc2)c1 | -25% | nt | 3% | -10% | 1% | -2% | nt | nt |
| O=C(NC1CCCC1)C(c1ccccc1)N(Cc1ccc2c(c1)OCO2)C(=O)Cc1cccs1 (stereo not given) | -3% | 5% | -5% | ? | ? | 2% | 5% | -4.0% |
| CCC(C)(C)NC(=O)CN(C(=O)c1ccc(N2CCCC2)nc1)c1ccc(F)cc1 | -1% | nt | 1% | nt | nt | -6% | 10% | nt |
| CC(=O)CSc1nnc(CSc2ncccn2)n1C1CCCCC1 | 24% | -4% | 1% | -4% | 2% | 10% | -3% | 4.1% |
| CC(CCc1ccccc1)N1CCN(C)CC1 (stereo not given) | -14% | nt | 1% | 1% | -6% | nt | 6% | nt |
| CC(=O)c1ccc(N2CCN(C(=O)c3ccc(NC4=NC5CS(=O)(=O)CC5S4)cc3)CC2)cc1 (stereo not given) | -6% | nt | -9% | nt | nt | -4% | 3% | nt |
| Cc1cccc(CCNCc2cc3ccc(C)cc3[nH]c2=O)c1 | -25% | nt | 0% | nt | nt | 3% | 3% | nt |
| NC(=O)CC(NSc1ccccc1[N+](=O)[O-])C(=O)O (stereo not given) | -7% | nt | 3% | nt | nt | -5% | 9% | nt |

(listing goes on)
| SMILES | 2A StopGo | Cruzain noTriton | RE007 growth inh | LASV entry inh | Marburg entry inh | SARS PLP yeast | NS1 function inh | Cruzain Triton |
| --- | --- | --- | --- | --- | --- | --- | --- | --- |
| Cc1ccc(Cn2c(CCCO)nc3ccccc32)cc1 | 0% | nt | 22% | 15% | 18% | -3% | 7% | nt |
| CN(C)c1ccc(C(=S)N2CCN(C(=S)Nc3ccc(Cl)cc3)CC2)cc1 | -13% | nt | 7% | -20% | 1%[46.1 µM] | -2% | 2% | nt |
| Cc1cccc(N(C)S(=O)(=O)c2ccc3[nH]cc(C(=O)N4CCOCC4)c(=O)c3c2)c1 | 1% | 7% | 5% | 13% | ? | 5% | -5% | 0.1% |
| Cc1ccc(NC(=O)c2cc3ccccc3o2)cc1S(=O)(=O)N(C)C | -36% | 1% | -10% | ? | 16% | -2% | 10% | -2.0% |
| Cc1sc(C2C(C#N)=C(N)N(c3cccc(Cl)c3)C3=C2C(=O)CCC3)cc1CN1CCOCC1 (stereo not given) | 15% | -16% | nt | -12%[46.1 µM] | -15%[46.1 µM] | nt | nt | -4.0% |
| COC(=O)c1ccccc1NC(=O)CN1C(=O)C2CCCN2c2ncc(Cl)cc21 (stereo not given) | nt | 10µM* | nt | nt | nt | 5% | ? | -1.8% |
| COc1ccc(NC(=O)C2(c3ccc(NC(=O)c4ccc(OC)c(OC)c4)cc3)CCCC2)cc1 | 5% | 2% | -1% | -8% | -1% | -1% | -3% | 2.4% |
| Cc1cccc(OCC(=O)Nc2ccccc2N2CCN(C(=O)C(C)C)CC2)c1C | ? | 4% | -15% | 1% | -9%&-9% | -1% | -28% | -7.5% |
| COc1cccc(C(=O)NCC(=O)OCC(=O)Nc2ncc(Cl)cc2Cl)c1 | 11% | nt | -4% | 1% | -19%[46.1 µM] | 3% | nt | nt |
| Cc1cc(C)c2oc(C(=O)N(Cc3cccs3)C3CCS(=O)(=O)C3)cc(=O)c2c1 (stereo not given) | 0% | nt | -11% | nt | nt | -1% | -8% | nt |
| CSc1cc(C)n(-c2ccc(Cl)cc2)c(=S)c1C(C)=O | 35%[activator] | -6% | 42% | 2% | 7% | -8% | 7% | -0.4% |
| CC(NC(=O)C1CCN(S(=O)(=O)c2ccc3c(c2)NC(=O)CO3)CC1)c1ccccc1 (stereo not given) | -15% | nt | -8% | nt | nt | -8% | 0% | nt |

(list continues)
| SMILES | 2A StopGo | Cruzain noTriton | RE007 growth inh | LASV entry inh | Marburg entry inh | SARS PLP yeast | NS1 function inh | Cruzain Triton |
| --- | --- | --- | --- | --- | --- | --- | --- | --- |
| CCOC(=O)C1CCCN(C(=O)c2cc(=O)c3ccccc3o2)C1 (stereo not given) | 5% | 4% | 23% | 26% | 22% | 1% | 0% | 4.4% |
| CCN(CC)c1ccc(NC(=O)c2cccc(OC)c2)c(C)c1 | 11% | -4% | 10% | ? | ? | -1% | -6% | 1.9% |
| Cn1c(NC(=O)c2ccccc2)cc(=O)n(C)c1=O | -8% | 1% | -5% | nt | nt | 6% | 4% | -0.9% |
| COC(=O)c1ccc(NC(=O)c2cc(S(=O)(=O)N3CCc4ccccc43)cn2C)cc1 | 1% | -3% | nt | -25%[46.1 µM] | nt | nt | nt | -11% |
| COCCn1c(=N)c(C(=O)NCCc2ccc(OC)cc2)cc2c(=O)n3cccc(C)c3nc21 | ? | -3% | -14% | -13% | -10% | -6% | 4% | -4.2% |
| CC(=O)Nc1ccc(C(=O)N/N=C/c2ccccc2OCc2ccccc2)cc1 | -1% | nt | -12% | ? | ? | 0% | -21% | nt |
| Cc1ccnc(NC(=O)c2cccc(S(=O)(=O)N3CCOCC3)c2)c1 | 10% | nt | -18% | 10% | 0% | -2% | nt | nt |
| CCOc1ccc(/C=N/NC(=S)NC2CC3C=CC2C3)cc1 (stereo not given) | -26% | nt | -3% | nt | nt | 1% | 10% | nt |
| CCOC(=O)c1c(NC2OC(=O)c3c2ccc(OC)c3OC)sc(C(=O)OC(C)(C)C)c1C (stereo not given) | -38% | ? | ? | -7% | 14% | -4% | 5% | -11% |
| CC(C)NC(=O)/C=C/C(=O)O | -2% | nt | 4% | 14%[46.1 µM] | -6%[46.1 µM] | 2% | nt | nt |
| COc1ccc(N2C(=O)CC(NCC#N)C2=O)cc1 (stereo not given) | -18% | nt | ? | 9%[46.1 µM] | 0%[46.1 µM] | -18% | -1% | nt |
| Cc1ccc(NC(=O)c2cc(NC(=O)/C=C\C(=O)O)ccc2N2CCCCC2)cc1 | ? | nt | -1% | nt | nt | 6% | 9% | nt |

(more compounds)
| SMILES | 2A StopGo | Cruzain noTriton | RE007 growth inh | LASV entry inh | Marburg entry inh | SARS PLP yeast | NS1 function inh | Cruzain Triton |
| --- | --- | --- | --- | --- | --- | --- | --- | --- |
| O=C(NCCO)C(=O)NCC1OCCCN1S(=O)(=O)c1ccc2c(c1)OCCO2 (stereo not given) | -2% | nt | 19% | 1% | 19% | -6% | 8% | nt |
| CC(OC(=O)CC(C)c1ccccc1)C(=O)Nc1ccc(Cl)cn1 (stereo not given) | ? | nt | 22% | 12% | ? | -2% | nt | nt |
| COc1ccc(C(=O)/C=C/c2ccccc2C(F)(F)F)cc1 | nt | -1% | -10% | -20% | -25% | -6% | -34% | -8.9% |
| Cc1c2cccn2cc[n+]1C | 0% | -3% | -4% | ? | 25% | 0% | 7% | -8.2% |
| CCC(CC)c1nnc(NC(=O)c2ccc(S(=O)(=O)N3CCc4ccccc4C3)cc2)s1 | -18% | ? | 5% | 1% | -1% | 5% | 12% | -4.1% |
| Cc1cc(C)c(S(=O)(=O)c2ccc(Cl)cc2)c(Cl)n1 | -11% | nt | -11% | -16% | -13%[46.1 µM] | 3% | nt | nt |
| CCOc1cc(/C=N/N=C(\N)c2nonc2N)cc(Br)c1OCc1cccc2ccccc12 | ? | 6.3µM* | -5% | ? | ? | 5% | 2% | 4.4% |
| O=C(Nc1ccccc1C(=O)N1CCOCC1)c1ccc(CSc2ccccc2)cc1 | 0% | nt | -6% | 2% | -15%[14.2 µM] | -1% | -8% | nt |
| Oc1ccc(/C(Cc2ccc3ccccc3n2)=N\Nc2ccccc2)c(O)c1 | 13% | nt | 81% | ? | ? | 0% | nt | nt |
| CC(CCc1ccccc1)NS(=O)(=O)c1ccc(Cl)c(C(=O)O)c1 (stereo not given) | 2% | nt | 6% | 5% | -2%[46.1 µM] | 3% | 10% | nt |
| COc1cc(SC)ccc1C(=O)OCC(=O)NC1CCCCC1 | -23% | nt | -19% | 1%[46.1 µM] | ? | -6% | nt | nt |
| Cc1c(NC(=O)C(C)(C)C)cccc1-c1nc2ccccc2s1 | -8% | 11% | nt | 20%[46.1 µM] | 1%[46.1 µM] | nt | nt | -2.7% |
